HSV replic up: increases HSV replication in cells | HSV replication augmentation in cells, fold increase | maximum fold increase | hit rate 0.005% among 220,000;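 active means peak rise of 1.5-fold or more in the series; tested in PC3 cells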;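 further: first round at 10 µM; read as green reporter fluorescence; hits show the peak of a series up to 25 µM; 1 = signal of infected wells without compound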
GALR2 ag: activates the human galanin receptor 2 | O43603 | GALR2-expressing cells, agonist activation read-out | activation, %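 (tested at 5 µM)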 | hit rate 0.48% among 140,000;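 active means above mean plus 3 SD of all compounds, about 5% in these data, not always enough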;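 further: 0% = vehicle buffer wells and 100% = reference agonist at full effect; tested in CHO reporter cells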
Target sequence (O43603 whole entry, looked up): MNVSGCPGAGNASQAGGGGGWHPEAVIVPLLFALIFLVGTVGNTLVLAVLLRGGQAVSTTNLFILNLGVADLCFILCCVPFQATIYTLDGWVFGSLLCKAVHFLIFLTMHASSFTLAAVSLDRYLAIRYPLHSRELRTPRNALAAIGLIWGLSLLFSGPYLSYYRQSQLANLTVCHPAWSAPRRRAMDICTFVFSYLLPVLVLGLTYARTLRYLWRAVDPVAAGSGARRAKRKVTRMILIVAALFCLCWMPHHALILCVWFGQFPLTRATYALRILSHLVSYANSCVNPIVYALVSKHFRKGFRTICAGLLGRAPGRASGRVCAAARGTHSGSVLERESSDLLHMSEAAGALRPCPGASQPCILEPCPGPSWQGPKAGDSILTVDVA
PKD1 inh: blocks activity of human protein kinase D1. Q15139. PKD1 kinase fluorescence polarization assay. inhibition, %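 (about 10 µM by stock and volumes)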. hit rate 0.056% among 200,000;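 active means inhibition of 50% or more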;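 further: controls were vehicle for no effect and a reference inhibitor for full effect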
RGS16-Gao: regulators of human RGS16-Galphao interaction; O15492+P09471; bead-based flow cytometry RGS16-Galphao binding, fluorescence; actives lie on both sides; binding response (% of control), % at 10 µM; hit rate 0.38% among 220,000; AID 1441;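 active means below 25% or above 175%, edge rows of some plates excepted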;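 further: Galphao activated by GDP with aluminum fluoride before binding; 100% = wells without compound and 0% = beads without RGS; some results beyond the cut were filed as inactive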
Target sequence (O15492 whole entry, looked up): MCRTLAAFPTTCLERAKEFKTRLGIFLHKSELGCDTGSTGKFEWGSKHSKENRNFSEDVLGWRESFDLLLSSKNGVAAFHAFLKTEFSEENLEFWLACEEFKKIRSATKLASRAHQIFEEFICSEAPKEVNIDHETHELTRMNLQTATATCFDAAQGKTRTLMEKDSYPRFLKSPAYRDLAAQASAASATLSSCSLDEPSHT
Target sequence (P09471 whole entry, looked up): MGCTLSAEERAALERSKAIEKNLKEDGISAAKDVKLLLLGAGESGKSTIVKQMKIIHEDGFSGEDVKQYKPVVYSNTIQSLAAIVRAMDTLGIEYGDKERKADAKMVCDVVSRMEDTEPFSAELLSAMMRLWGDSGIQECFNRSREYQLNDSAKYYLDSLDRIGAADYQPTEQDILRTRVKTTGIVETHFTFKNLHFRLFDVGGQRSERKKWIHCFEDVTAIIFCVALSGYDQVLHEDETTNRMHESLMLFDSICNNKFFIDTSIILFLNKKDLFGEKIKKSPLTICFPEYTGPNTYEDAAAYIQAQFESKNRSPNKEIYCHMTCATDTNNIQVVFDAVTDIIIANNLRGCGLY
Insulin prom inh: TRM-6 insulin promoter activity inhibition; TRM-6 cells (human fetal islet line), insulin promoter-eGFP reporter, imaging; reporter expression induced with tamoxifen; inhibition, % at 2 µM; hit rate 0.9% among 130,000; AID 1273;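 active means inhibition above the mean plus 3 SD, with well images judged a real hit on visual review, cut at about 60% in these data, passing the limit was not always enough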
Insulin prom inh cell count: also measured in Insulin prom inh; calls as there; normalized cell count, %; measured here: cell count, toxicity; reference of the scale not given here;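 cells exposed to compound for 48 h; stained nuclei by imaging scaled within each plate; lower means fewer cells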
HSV replic up primary fold: further read-out of HSV replic up, marked with its call; fold increase; compound at 10 µM; measured here: primary screen fold increase 10 uM; tested in PC3 cells;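 GFP signal in the first replicate; 1 = infected wells without compound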
* hit, by the source's call; i = inactive; · = no result given; [ ] = dose if it differs, or a comment.

SMILES	HSV replic up	HSV replic up primary fold	GALR2 ag	PKD1 inh	RGS16-Gao	Insulin prom inh	Insulin prom inh cell count
Cc1ccc(NC(=O)C2CC(c3ccc(F)cc3)=NO2)cc1 (stereo not given)	i	1.1	-0.5	5	101	·	·
Cc1nc(C)c(C(=O)C2=C(O)C(=O)N(CCN3CCOCC3)C2c2cccs2)s1 (stereo not given)	i	0.81	0.7	-2	102	15	156
COc1ccc(S(=O)(=O)N2CCOCC2)cc1NC(=O)COC(=O)C1COc2ccccc2O1 (stereo not given)	i	1.1	-0.9	-7	53	21	87
CC(C)c1nc(NCC2CCCO2)c(C#N)c2c1COC(C)(C)C2 (stereo not given)	i	0.79	-1.3	-15	100	22	123
Cc1ccc(Nc2c(F)c(F)c(F)c(F)c2C(=O)O)c(C)c1	i	0.94	·	-6	98	42	155
Cc1ccccc1OCCNC(=O)/C=C/c1ccccc1	i	1	0.5	-14	58	-69	59
C=CCN1C(=NC(=O)CC)SC2CS(=O)(=O)CC21 (stereo not given)	i	0.95	-3.4	-7	99	-71	201
Nc1nonc1-c1nc2ccccc2n1Cc1ccc(F)cc1	i	1.1	0.2	-2	76	14	64
Fc1cnc(Cl)nc1N1CCN(c2ccccc2)CC1	i	0.73	·	·	119	·	·
O=C(Nc1ccc2nc(-c3ccccn3)[nH]c2c1)C1CCCCC1	i	0.73	-0.6	-7	102	47	36
COc1ccc(C(=O)NNC(=O)c2cc3cc([N+](=O)[O-])ccc3oc2=O)cc1OC	i	1	0.9	1	100	·	·
Cc1ccc(Oc2ccc(NC(=O)Cn3ccsc3=N)cc2)cc1	i	1	0.3	-4	106	24	123
Cc1cccc(NC(=S)N(Cc2ccco2)C(C)c2cccs2)c1 (stereo not given)	i	1	·	3	99	-39	128
O=[N+]([O-])c1ccc(-c2cn3c(n2)CCC3)cc1	i	0.96	·	·	100	·	·
Cc1ccccc1CN1CCN(CC(=O)NCc2ccccn2)C1=O	i	0.77	0.2	2	100	·	·
Cc1nc(NS(=O)(=O)c2ccccc2)sc1NC(=O)Nc1ccc(Cl)cc1	i	0.81	·	·	98	·	·
Cn1c(Oc2ccc(F)cc2F)c(C=O)c2ccccc21	i	0.86	·	5	105	·	·
CCOC(=O)C1(Cc2ccc(OC)cc2)CCN(C(=O)c2ccc3[nH]ccc3c2)CC1	i	0.82	·	-4	41	·	·
COc1cc(Br)cc(CN2CCN(C/C=C/c3ccccc3)CC2)c1O	i	0.88	-2.0	-11	103	-290	48
COC1(OC)C(=N/O)/C(=N\O)CCC1O (stereo not given)	i	0.88	0.2	3	92	·	·
CCCN1CNC(=S)N(CC2CCCO2)C1 (stereo not given)	i	0.88	-0.9	-5	107	22	108
CC(C)(C)NC(=O)CCN1CCOCC1	i	1	-3.5	1	138	0	108
O=C(Nc1ccc(N2CCCCC2)cc1)c1cc([N+](=O)[O-])cc([N+](=O)[O-])c1	i	0.9	·	0	177	20	85
COc1cccc(CN2CCN(c3ccc(F)cc3)C2=O)c1	i	1.2	·	7	100	·	·
O=C(O)CCSc1ncnc2sc(-c3ccccc3)cc12	i	0.82	·	·	236*[activator]	·	·

The last 4 records of the part above come first, to join the parts.
SMILES	HSV replic up	HSV replic up primary fold	GALR2 ag	PKD1 inh	RGS16-Gao	Insulin prom inh	Insulin prom inh cell count
CC(C)(C)NC(=O)CCN1CCOCC1	i	1	-3.5	1	138	0	108
O=C(Nc1ccc(N2CCCCC2)cc1)c1cc([N+](=O)[O-])cc([N+](=O)[O-])c1	i	0.9	·	0	177	20	85
COc1cccc(CN2CCN(c3ccc(F)cc3)C2=O)c1	i	1.2	·	7	100	·	·
O=C(O)CCSc1ncnc2sc(-c3ccccc3)cc12	i	0.82	·	·	236*[activator]	·	·
COCCNC(=O)C(c1cccs1)N(C(=O)Cn1nnc2ccccc21)c1ccc2c(c1)OCO2 (stereo not given)	i	1	-0.8	-2	103	·	·
C/C(=N\NC(=S)Nc1ccc(F)cc1)C1CC1	i	1.1	-3.2	1	92	-74	88
N#CCCN(Cc1cccnc1)C(=O)Nc1cccc(Cl)c1	i	0.76	-1.9	3	100	-8	109
COc1ccc(OC)c(NC(=O)C2CCN(Cc3cnn(-c4ccccc4)c3-n3cccc3)CC2)c1	i	0.81	0.0	2	157	-13	117
Cc1ccc(C(=O)OCC(=O)Nc2nc(-c3ccccc3)cs2)cc1NC(=O)c1ccco1	i	0.96	·	4	103	·	·
COc1ccc(C(=O)Nc2cccc(-c3cnc4ccccc4n3)c2)cc1	i	0.8	-3.0	7	101	-33	63
CCOC(Cn1ccc(=O)[nH]c1=O)OCC	i	0.92	·	·	82	·	·
CC(C)NC(=O)c1cc(=O)n(C)c(=O)n1C	i	0.97	-1.2	7	107	21	151
CCCN1CN=C(Nc2nc3ccccc3o2)NC1	i	1	·	·	105	·	·
O=C(NC(=S)NNC(=O)c1ccccc1O)c1ccco1	i	1	-1.5	-2	113	·	·
COc1ccc(N(CC(=O)Nc2cccc(C(F)(F)F)c2)S(C)(=O)=O)cc1	i	0.9	-2.4	-2	102	-75	140
COc1cccc2c(=O)n(CC(=O)N3CCCCCC3)ccc12	i	1.1	-4.7	-8	99	·	·
O=C(/C=C/c1cccs1)c1ccc(NC(=O)c2ccccc2F)cc1	i	1.2	-2.8	1	102	·	·
CCOC(=O)C1CCCNC1=O (stereo not given)	i	1.1	·	·	99	·	·
O=C(NCc1ccccc1)C1=C[C@H](c2ccc(C(F)(F)F)cc2)C[C@H](OCc2ccc(CO)cc2)O1	i	1.1	·	4	102	·	·
CCNC(=O)c1cc(Br)ccc1Cl	i	0.86	0.1	2	99	-21	65
CCOC(=O)C1(CCc2ccccc2)CCN(C(=O)CCc2cnccn2)CC1	i	0.98	·	-9	100	11	184
O=C1CN(C(=O)CSc2nc(-c3ccc(Cl)cc3)cs2)c2ccccc2N1	i	0.99	-1.1	1	89	·	·
O=C(COc1ccc(S(=O)(=O)N2CCCCC2)cc1)NC1CCCCC1	i	0.85	-1.6	-9	102	51	85
Cc1ccc(NC(=O)Cc2c(Cl)cccc2Cl)cc1S(=O)(=O)N(C)C	i	0.88	-1.4	-8	97	-43	92
O=C(Nc1ccc([N+](=O)[O-])cc1)c1ccc(Cn2cc([N+](=O)[O-])cn2)cc1	i	1.1	·	-1	74	53	78
CC(C)(C)c1ccc(S(=O)(=O)NCc2ccc(C(=O)N3CCOCC3)cc2)cc1	i	0.89	-0.6	-3	104	54	60
NS(=O)(=O)c1ccc(N=Nc2c(-c3ccccc3)[nH]n(-c3nc(-c4ccccc4)cs3)c2=O)cc1	i	0.74	-0.7	-3	102	·	·
COc1cc(OC)cc(C(=O)NC(=S)NNC(=O)[C@H]2C[C@@H]2c2ccccc2)c1	i	0.96	·	·	89	·	·
C=COC(=O)CSc1snc(SCC(=O)OC)c1C#N	i	1.1	-1.2	1	91	56	145

Complete entries from above:
Results for CC(C)NC(=O)c1cc(=O)n(C)c(=O)n1C = HSV replic up = i; HSV replic up primary fold = 0.97; GALR2 ag = -1.2; PKD1 inh = 7; RGS16-Gao = 107; Insulin prom inh = 21; Insulin prom inh cell count = 151
Results for O=C(NC(=S)NNC(=O)c1ccccc1O)c1ccco1 = HSV replic up = i; HSV replic up primary fold = 1; GALR2 ag = -1.5; PKD1 inh = -2; RGS16-Gao = 113; Insulin prom inh = ·; Insulin prom inh cell count = ·

Remaining list, next part.
SMILES	HSV replic up	HSV replic up primary fold	GALR2 ag	PKD1 inh	RGS16-Gao	Insulin prom inh	Insulin prom inh cell count
CC(=O)c1ccc(COC(=O)c2ccccc2NC(=O)C(C)C)cc1	i	1.1	·	2	104	·	·
Cc1ccc(N/N=C2\CC(=O)c3ccccc32)cc1Cl	i	0.87	·	-2	102	·	·
COc1ccc(NC(=O)CC2SC(=O)NC2=O)cc1 (stereo not given)	i	0.81	·	-7	112	47	98
Cc1cccc(C)c1NC(=O)Cn1c(CN2CCCCC2)nc2ccccc2c1=O	i	1	-1.1	-3	106	-12	124
CCOc1ccc(N(CC(=O)NC2CCCC2)S(=O)(=O)c2c(C)[nH]c(=O)[nH]c2=O)cc1	i	0.87	0.4	-15	101	·	·
CC1(C)NC(=O)N(CCOc2ccc3c(c2)CCC3)C1=O	i	1.1	0.0	-17	109	·	·
O=c1c2c3c(sc2nc2n1CCCC2)CCC3	i	1.1	-1.0	-5	99	21	80
CCc1ccccc1NC(=O)CSc1nnc(-c2ccncc2)o1	i	1.1	·	0	98	·	·
Cc1cccc(NC(=O)NC(=S)NC(=O)c2ccccc2)c1	i	0.98	-2.6	15	89	0	111
CCc1ccc(/C=C2\Oc3ccc(C(=O)OC)cc3C2=O)cc1	i	0.86	-1.1	-7	101	-12	181
O=C(NCCc1ccccc1)c1cccs1	i	0.98	-0.1	-6	102	11	90
COc1ccc(-c2cc(C(N)=O)nc(N3CCCCCC3)n2)cc1	i	1.1	-2.3	14	98	·	·
CCN(CC)CCCNC(=O)Cc1c(C(=O)O)n(C)c2ccccc12	i	1	-1.9	-3	110	-42	61
CCC(C)C(NC(=O)C1CCC(C)CC1)C(=O)NCCCN1CCCCC1CC (stereo not given)	i	1	·	9	100	-45	79
CCN(CC)C(=S)NC(=O)c1ccc(F)cc1	i	1	·	0	98	·	·
CSc1ccccc1C(=O)N(C)Cc1ccccc1	i	0.95	·	4	99	·	·
CC1Cc2nc(SCC(=O)N3CCN(c4ccccc4)CC3)n(C)c(=O)c2S1 (stereo not given)	i	0.66	-1.9	-2	105	·	·
CCCn1nnc(NC(=O)C(C)C)n1	i	0.88	·	·	100	·	·
Cc1ccc(C)c(NC(=O)C(Sc2nc3ccccc3c(=O)n2CC(C)C)c2ccccc2)c1 (stereo not given)	i	0.89	0.8	-3	79	·	·
O=c1[nH]c(CN2CCc3ccccc32)nc2scc(-c3cccs3)c12	i	0.97	-2.8	6	108	29	94
CCCOc1nc(C)cc(COC)c1C(N)=O	i	0.93	·	-7	92	·	·
COC(=O)c1ccc(/C=N/NC(=O)C(=O)NCC2CCCO2)cc1 (stereo not given)	i	1.1	·	·	105	·	·
COc1cccc(-n2nnnc2SCC(=O)NC2CCCC2)c1	i	0.85	-2.6	5	98	75*	100*
COc1cc(NC(=O)c2cc(C)on2)cc(OC)c1OC	i	1	0.3	-8	78	·	·
O=C(c1ccccc1)N(Cc1nc2ccccc2c(=O)[nH]1)C1CCCCC1	i	1	·	-4	106	·	·
Next section
SMILES	HSV replic up	HSV replic up primary fold	GALR2 ag	PKD1 inh	RGS16-Gao	Insulin prom inh	Insulin prom inh cell count
C(#Cc1ccccc1)C[N+]1(CC#Cc2ccccc2)CCCCC1	i	0.97	·	0	101	-67	110
Cc1cc(N2CCCCC2)nc(N2CCCCC2)n1	i	1.1	·	-2	100	-21	99
CC(NC(=O)CN1CCCC1)C12CC3CC(CC(C3)C1)C2 (stereo not given)	i	1.1	-1.4	1	94	-69	131
C=CCN1C(=O)C(O)=C(C(C)=O)C1c1ccccc1F (stereo not given)	i	0.97	-1.0	-12	115	12	84
C/C(N)=C(/C#N)C(=O)COC(=O)c1ccccc1O	i	0.93	-0.7	-14	103	-7	79
O=C(Cn1ccc2ccccc2c1=O)Nc1ccc2c(c1)OCO2	i	0.95	-1.1	1	109	-34	83
CCc1nn(CC(=O)NCCCN(Cc2ccccc2)C(C)C)c(=O)c2cc3sccc3n12	i	0.91	0.2	-1	91	·	·
COc1ccccc1-n1c(C)nc2cc(C(=O)NCc3ccc4c(c3)OCO4)ccc21	i	0.89	0.2	5	128	0	75
CC(C)c1ccc(NC(=O)COC(=O)CCC(=O)c2cccs2)cc1	i	0.77	0.9	-5	104	-7	109
CCN(C(=O)CSc1nc2ccccc2c(=O)n1-c1ccc(C)cc1)C1CCS(=O)(=O)C1 (stereo not given)	i	0.85	·	-3	107	7	94
CC(O)CNCCNCc1cccs1 (stereo not given)	i	0.98	·	-1	100	·	·
COc1ccc(N2CCN(c3cc(C)c4ccccc4n3)CC2)cc1	i	0.94	·	-3	105	37	136
CN1C(=O)COc2ccc(C(=O)c3ccccc3C(=O)O)cc21	i	0.94	2.3	12	102	·	·
CC1=NN(C(C#N)c2ccccc2O)C(C)(C)C1 (stereo not given)	i	0.82	·	-5	106	·	·
O=C(Nc1ccc(CN2CCCCC2)cc1)c1cc(Br)ccc1Cl	i	0.92	·	-9	94	·	·
Cc1cc(C)n(-c2nc3sc4c(c3c3nnc(SC(C)C)n23)CC(C)(C)OC4)n1	·	·	0.2	3	·	31	134
Cc1cc(C)cc(NC(=O)N2CCCN(Cc3c(F)cccc3Cl)CC2)c1	i	1.3	·	·	106	·	·
CC1CCC(N2CCN(c3ncccn3)CC2)CC1 (stereo not given)	i	1	-3.4	0	95	-392	65
CCC(C)NC(=S)N1CCN(Cc2ccccc2)CC1 (stereo not given)	i	0.91	·	-2	80	-33	157

Screens deposited in PubChem BioAssay by several laboratories.

Compounds were not picked by outcome; 1.3% or so of the library scored in one or more.
